Six1-Eya2 blk – qHTS Assay for Inhibitors of the Six1/Eya2 Interaction; Homeobox protein SIX1 (Homo sapiens) + Protein phosphatase EYA2 (Homo sapiens), …; AlphaScreen GST-Six1/His-Eya2 binding, biochemical; active compounds read low; control for the full effect not named in the record; activity change, % (no concentration beside the values); 360,000 compounds, 0.56% hits; AID 651725, 2012; in the data active = activity change below about -65%; inconclusive = about -30% to -65%; inactive = above about -30%; note: % is set by controls: 0 for no effect and ±100 for the full control effect
Target sequence (O00167 whole entry, looked up): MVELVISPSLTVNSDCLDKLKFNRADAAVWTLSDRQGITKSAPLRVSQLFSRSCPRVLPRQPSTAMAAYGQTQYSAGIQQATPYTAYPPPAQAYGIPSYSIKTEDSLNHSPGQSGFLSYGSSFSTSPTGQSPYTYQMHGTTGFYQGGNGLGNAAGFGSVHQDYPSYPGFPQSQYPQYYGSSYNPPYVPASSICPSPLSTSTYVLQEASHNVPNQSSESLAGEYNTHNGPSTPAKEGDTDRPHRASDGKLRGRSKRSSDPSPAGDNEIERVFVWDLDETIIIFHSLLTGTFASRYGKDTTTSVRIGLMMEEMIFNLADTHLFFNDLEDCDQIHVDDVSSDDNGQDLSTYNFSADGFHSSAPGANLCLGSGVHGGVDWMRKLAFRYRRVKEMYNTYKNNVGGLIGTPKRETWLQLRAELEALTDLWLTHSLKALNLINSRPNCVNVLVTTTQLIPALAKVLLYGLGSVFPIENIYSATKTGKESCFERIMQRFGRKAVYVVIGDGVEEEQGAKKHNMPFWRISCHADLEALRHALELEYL
Target sequence (Q15475 whole entry, looked up): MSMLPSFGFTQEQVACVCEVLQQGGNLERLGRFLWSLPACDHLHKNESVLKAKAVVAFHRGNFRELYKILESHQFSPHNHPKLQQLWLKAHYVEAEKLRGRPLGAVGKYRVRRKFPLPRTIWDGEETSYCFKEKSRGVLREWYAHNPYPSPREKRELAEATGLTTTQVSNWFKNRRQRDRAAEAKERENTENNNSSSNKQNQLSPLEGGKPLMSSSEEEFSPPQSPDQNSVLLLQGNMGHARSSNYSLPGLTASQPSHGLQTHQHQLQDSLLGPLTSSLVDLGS
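AlphaScreen with GST-Six1 and His-Eya2 (5X mix: 250 nM and 500 nM), glutathione donor and nickel acceptor beads; buffer 50 mM Tris pH 8.0, 300 mM NaCl, 1 mM TCEP; 1 h at 37 C in the dark.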
TRPML1 inh – qHTS for Inhibitors of the Human Mucolipin Transient Receptor Potential 1 (TRPML1); Mucolipin-1 (Homo sapiens), Q9GZU1; TRPML1-inducible cells, Ca2+ dye fluorescence, FDSS; active compounds read low; inhibition of EC80 agonist-evoked calcium signal; activity change, negative = inhibition, % (concentration not given with the values); 390,000 compounds, 0.02% hits; AID 624415, 2012; in the data active means activity change below about -50%; inconclusive means about -30% to -50%; inactive means above about -30%;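 note: stimulus is agonist 54-4 at its EC80 concentration; % is set by controls: 0 for no effect and ±100 for the full control effect; the text of the record puts the active cut at -80%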
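Tet-induced TRPML1-DL cells loaded with Ca8 no-wash calcium dye were read kinetically on FDSS. Compound addition was followed by EC80 agonist 54-4 (4 uM final); inhibition was read over 110 s.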
CtBP-E1A inh – qHTS Assay for Inhibitors of the CtBP/E1A Interaction; CtBP / adenovirus E1A interaction (AlphaScreen); AlphaScreen GST-E1A/His-CtBP binding, 1536-well; active compounds read low; control for the full effect not named in the record; activity change, % (concentration not given with the values); 340,000 compounds, 0.49% hits; AID 651724, 2012; in the data active means activity change below about -65%; inconclusive means about -30% to -65%; inactive means above about -30%; note: % is set by controls: 0 for no effect and ±100 for the full control effect
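GST-E1A and His-tagged CtBP (125 nM each as 5X stock) were preincubated with pin-transferred compound for 2 h at 37 °C in the dark, then glutathione donor and nickel acceptor beads were added for 1 h before AlphaScreen reading.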
TRPML1 agonist – qHTS for Agonists of the Human Mucolipin Transient Receptor Potential 1 (TRPML1). 410,000 compounds, 0.12% hits. TRPML1-expressing cells, Ca2+ dye fluorescence, FDSS; host cell line not named in the record; reference of the full effect not given here. activation, % (no concentration beside the values); in the data active = activation above about 50%; inconclusive = about 30% to 50%; inactive = below about 30%; note: 0% is about no effect; the text of the record puts the active cut at 80%
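Cells: TRPML1-DL, 1X Tet inducer, ~16 h at 37 degrees C/5% CO2. Dye: ABD Ca8 no-wash + quencher, 45-90 min RT. Read: 10 s baseline, compound add, 110 s agonist phase; 54-4 EC80 (4uM final), 110 s antagonist phase.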
D2 ag – Beta-Arrestin HTS for Positive Allosteric Modulators of the Human D2 Dopamine Receptor: Agonists | DiscoveRx PathHunter D2 beta-arrestin, luminescence, 90 min; 100% = 57 uM dopamine signal | activation, % (test concentration not listed) | 360,000 compounds, 0.084% hits; in the data active = activation above about 40%; inconclusive = about 15% to 40%; inactive = below about 15%; note: compound concentration not given in the record; the text of the record calls up to 30% inactive
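Agonist mode: compounds alone added to overnight-plated D2 PathHunter cells for 90 min at 37 C, with 57 uM final dopamine (EC100) defining full response. Beta-arrestin recruitment detected by chemiluminescent reagent, read after 1 h at ambient temperature.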
PINK1 expr mod – A Quantitative High throughput Screen to Identify Chemical Modulators of PINK1 Expression; PINK1 immunofluorescence, high-content cytometry, 24 h; Potency, µM (highest dose often 76.6 µM), without a hit: at the top dose activation (PINK1 increase), hits mostly activators; 410,000 compounds, 0.2% hits; AID 624263, 2012; active = well fitted activation curve with a large enough effect; inconclusive = small, poorly fitted or top-dose-only effect; inactive = flat fitted curve, though single readings scatter; cell line not stated here;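 note: potency is the fitted concentration of half-maximal effect; % of control where 0% means no effect; nearly all actives have a fitted effect of over 65% in size; a mitochondrial uncoupler was the plate control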
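Compound titrations (5 concentrations, 24 h) on a stable cell line; DMSO and CCCP controls. Endpoint: fixed-cell PINK1 immunofluorescence with mitochondrial, cell and nuclear markers, scanned by microplate cytometer.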
* = called active by the depositor; & = joins results of further samples; [ ] = dose if it differs, or a comment. Not all compounds are listed (hit frequency here may not be typical).

How did CC(=O)NCC(=O)Nc1ccc(Br)cc1C(=O)c1ccccc1 do in these assays?
Six1-Eya2 blk: 9; TRPML1 inh: -11; CtBP-E1A inh: 7; TRPML1 agonist: -0.1; D2 ag: -1.4; PINK1 expr mod: -0.7%

Results for Cc1nn(C)c(C)c1P(=S)(c1c(C)nn(C)c1C)N(C)C ?
Six1-Eya2 blk: 2; TRPML1 inh: 2; CtBP-E1A inh: 5; TRPML1 agonist: -0.5; D2 ag: 0.5; PINK1 expr mod: 1.8%[38.3 µM]

What do the screens show for `O=Cc1cn(Cc2ccc(F)cc2Cl)c2ccccc12`?
Six1-Eya2 blk: -11; TRPML1 inh: 7; CtBP-E1A inh: 7; TRPML1 agonist: -0.2; D2 ag: -0.3; PINK1 expr mod: 0.4%

What do the screens show for `CCc1ccccc1NC(=O)CNCc1ccccc1`?
Six1-Eya2 blk: 6; TRPML1 inh: 4; CtBP-E1A inh: 5; TRPML1 agonist: 0.9; D2 ag: 4.5; PINK1 expr mod: -2.1%

How did CCOc1ccccc1-n1c(O)c(C=Nc2ccc(N(CC)CC)cc2)c(=O)[nH]c1=O do in these assays?
Six1-Eya2 blk: -10; TRPML1 inh: -14; CtBP-E1A inh: -6; TRPML1 agonist: 1.6; D2 ag: 0.3; PINK1 expr mod: 4.5%

Results for CCC(C)C1N=C(c2ccccc2)c2cc(Cl)ccc2N(CC(=O)NCc2ccco2)C1=O (stereo not drawn) ?
Six1-Eya2 blk: 16; TRPML1 inh: -14; CtBP-E1A inh: 24; TRPML1 agonist: -1.2; D2 ag: -5.7; PINK1 expr mod: 5.1%

How did NCC(=O)c1ccccc1 do in these assays?
Six1-Eya2 blk: 0; TRPML1 inh: 4; CtBP-E1A inh: 6; TRPML1 agonist: -0.1&0.0; D2 ag: -5.6; PINK1 expr mod: -1.1%&-1.0%&0.6%

Results for CC(=O)OC1C2(CC3N4C(=O)C5(CO)SSC4(CC31O)C(=O)N5C)OC(C)C(C)(C)C2=O (stereo not drawn) ?
Six1-Eya2 blk: -16; TRPML1 inh: 7; CtBP-E1A inh: -20; TRPML1 agonist: 0.0; D2 ag: -21; PINK1 expr mod: -4.8%

What do the screens show for `CC(C)(C)NC(=O)CN1CCCN(C(=O)COc2ccc(Cl)c3ccccc23)CC1`?
Six1-Eya2 blk: -1; TRPML1 inh: -12; CtBP-E1A inh: 0; TRPML1 agonist: 1.2; D2 ag: 5.5; PINK1 expr mod: 0.3%

How did CN(C)CCN=Cc1c(O)n(CCC2=CCCCC2)c(=O)[nH]c1=O do in these assays?
Six1-Eya2 blk: 1; TRPML1 inh: 10; CtBP-E1A inh: 3; TRPML1 agonist: 1.5; D2 ag: 1.8; PINK1 expr mod: 0.3%[38.3 µM]

What do the screens show for `O=c1c2ccccc2nc(CNCC2CCCO2)n1-c1ccc(F)cc1` (stereo not drawn)?
Six1-Eya2 blk: 7; TRPML1 inh: -3; CtBP-E1A inh: 5; TRPML1 agonist: -0.4; D2 ag: 3.6; PINK1 expr mod: -0.4%

How did CC(C(=O)c1ccc(Cl)cc1Cl)n1cncn1 (stereo not drawn) do in these assays?
Six1-Eya2 blk: 6; TRPML1 inh: 8; TRPML1 agonist: 1.3; D2 ag: 0.8; PINK1 expr mod: 1.7%

What do the screens show for `Cc1ccsc1C(=O)C1CCCN(Cc2ccn[nH]2)C1` (stereo not drawn)?
Six1-Eya2 blk: -6; TRPML1 inh: -11; TRPML1 agonist: -0.4; D2 ag: -2.1; PINK1 expr mod: 0.7%

How did COc1ccc(NC(=O)c2cn(CCC#N)nc2-c2ccccc2)cc1 do in these assays?
Six1-Eya2 blk: 7; TRPML1 inh: 6; TRPML1 agonist: -0.5; D2 ag: -3.3; PINK1 expr mod: -0.5%

Results for Cc1ccc(C(=O)NC(O)C(Cl)(Cl)Cl)cc1 (stereo not drawn) ?
Six1-Eya2 blk: 10; TRPML1 inh: -15; CtBP-E1A inh: 3; TRPML1 agonist: 1.9; D2 ag: -2.1; PINK1 expr mod: 1.4%

How did CCC(C)n1c(O)c(C=Nc2cccc(C(F)(F)F)c2)c(=O)[nH]c1=S (stereo not drawn) do in these assays?
Six1-Eya2 blk: -11; TRPML1 inh: 44; CtBP-E1A inh: -10; TRPML1 agonist: -0.3; D2 ag: -2.1; PINK1 expr mod: 2.5%

Results for O=[N+]([O-])c1ccc(C(=Nc2ccccc2)N2CC2)cc1 ?
Six1-Eya2 blk: -21; TRPML1 inh: 28; CtBP-E1A inh: -5; TRPML1 agonist: -0.1; D2 ag: 1.3; PINK1 expr mod: -1.8%

Results for COC(=O)C1=C(c2ccc(S(C)(=O)=O)cc2)C[C@@H]2CC[C@H]1N2C(=O)NCCO ?
Six1-Eya2 blk: 1; TRPML1 inh: 12; CtBP-E1A inh: 6; TRPML1 agonist: -0.7; D2 ag: 0.8; PINK1 expr mod: -0.6%

What do the screens show for `Cc1cccc(NC(=O)COC(=O)c2cc(C)n(C3CC3)c2C)c1`?
Six1-Eya2 blk: -5; TRPML1 inh: -10; TRPML1 agonist: 0.0; D2 ag: -2.7; PINK1 expr mod: -1.2%

How did Cn1c(O)c(C=NCCc2c[nH]c3ccccc23)c(=O)n(C)c1=O do in these assays?
Six1-Eya2 blk: 4; TRPML1 inh: -11; CtBP-E1A inh: -17; TRPML1 agonist: -0.4; D2 ag: -2.8; PINK1 expr mod: 3.8%

Arranged by count of non-hydrogen atoms (high to low): part of the list above
How did COc1ccc(NC(=O)c2cn(CCC#N)nc2-c2ccccc2)cc1 do in these assays?
Six1-Eya2 blk: 7; TRPML1 inh: 6; TRPML1 agonist: -0.5; D2 ag: -3.3; PINK1 expr mod: -0.5%

What do the screens show for `Cc1cccc(NC(=O)COC(=O)c2cc(C)n(C3CC3)c2C)c1`?
Six1-Eya2 blk: -5; TRPML1 inh: -10; TRPML1 agonist: 0.0; D2 ag: -2.7; PINK1 expr mod: -1.2%

Results for O=[N+]([O-])c1ccc(C(=Nc2ccccc2)N2CC2)cc1 ?
Six1-Eya2 blk: -21; TRPML1 inh: 28; CtBP-E1A inh: -5; TRPML1 agonist: -0.1; D2 ag: 1.3; PINK1 expr mod: -1.8%

How did CC(C(=O)c1ccc(Cl)cc1Cl)n1cncn1 (stereo not drawn) do in these assays?
Six1-Eya2 blk: 6; TRPML1 inh: 8; TRPML1 agonist: 1.3; D2 ag: 0.8; PINK1 expr mod: 1.7%

Next part:
Results for CC(C(=O)c1c[nH]c2ccccc12)N1CCOCC1 (stereo not drawn) ?
Six1-Eya2 blk: 4; TRPML1 inh: 27; CtBP-E1A inh: -12; TRPML1 agonist: 0.5; D2 ag: -2.1; PINK1 expr mod: 1.0%

What do the screens show for `Cn1cc(C(=O)N2CCC3(CC2)OCCO3)c2c3ccccc3n(C)c2c1=O`?
Six1-Eya2 blk: -1; TRPML1 inh: 8; CtBP-E1A inh: 4; TRPML1 agonist: -0.5; D2 ag: -3.5; PINK1 expr mod: 2.9%[38.3 µM]

What do the screens show for `CC1c2ccccc2-n2nncc2CN1C` (stereo not drawn)?
Six1-Eya2 blk: 0; TRPML1 inh: 11; CtBP-E1A inh: 3; TRPML1 agonist: -0.4; D2 ag: 1.5; PINK1 expr mod: -0.8%

What do the screens show for `COc1ccc2[nH]c3c(c2c1)CCNC3`?
Six1-Eya2 blk: -17; CtBP-E1A inh: -4; D2 ag: -3.7; PINK1 expr mod: 0.0%

What do the screens show for `Cc1nc2c(-c3ccccc3)c(C)nn2c(C)c1CCC(=O)N1CCC2(CC1)OCCO2`?
Six1-Eya2 blk: 5; TRPML1 inh: 21; CtBP-E1A inh: 3; TRPML1 agonist: -0.2; D2 ag: -2.6; PINK1 expr mod: inconclusive

How did O=C(COc1ccccc1Cl)N1CCN(CCc2ccccn2)CC1 do in these assays?
TRPML1 inh: 4; TRPML1 agonist: -0.5; PINK1 expr mod: 0.5%

How did O=c1[nH]c2ccccc2n1C1CCN(C(c2cc3ccccc3o2)c2nnnn2-c2ccc3c(c2)OCCO3)CC1 (stereo not drawn) do in these assays?
Six1-Eya2 blk: -16; TRPML1 inh: -19; CtBP-E1A inh: -5; TRPML1 agonist: -0.4; PINK1 expr mod: 0.5%

Results for O=C(Cc1ccccc1)N1CCN(CCCc2ccccc2)CC1 ?
Six1-Eya2 blk: -24; TRPML1 inh: 27; CtBP-E1A inh: -4; TRPML1 agonist: 0.9; D2 ag: 11; PINK1 expr mod: 0.8%

What do the screens show for `C(CCc1nn[nH]n1)CCc1nn[nH]n1`?
Six1-Eya2 blk: 16; TRPML1 inh: 36; CtBP-E1A inh: 12; TRPML1 agonist: 1.2; D2 ag: 1.5; PINK1 expr mod: -1.2%

How did COc1ccc(NC(=S)NC(NC(=O)CF)C(Cl)(Cl)Cl)cc1[N+](=O)[O-] (stereo not drawn) do in these assays?
Six1-Eya2 blk: -8; TRPML1 inh: -12; TRPML1 agonist: 1.7; D2 ag: -2.6; PINK1 expr mod: -1.4%

Results for Cc1cc(OC(C)C(=O)NCC(O)c2ccccc2)c2c3c(c(=O)oc2c1)CCC3 (stereo not drawn) ?
Six1-Eya2 blk: -1; TRPML1 inh: -7; CtBP-E1A inh: 2; TRPML1 agonist: -0.4; D2 ag: -0.3; PINK1 expr mod: 1.5%

What do the screens show for `O=C(Oc1c(Cl)cc(Cl)c2ccccc12)N1CCCCC1`?
Six1-Eya2 blk: 36; TRPML1 inh: -13; CtBP-E1A inh: 3; TRPML1 agonist: 68*; D2 ag: -1.9; PINK1 expr mod: 19%

How did COCCNC(=O)c1ccc(N2CC3CC(C2)c2cccc(=O)n2C3)c([N+](=O)[O-])c1 (stereo not drawn) do in these assays?
Six1-Eya2 blk: -7; TRPML1 inh: -4; CtBP-E1A inh: 8; TRPML1 agonist: -0.8; D2 ag: -1.0; PINK1 expr mod: -0.4%

How did COc1ccccc1NC(=O)c1cn(CCC#N)nc1-c1ccc(F)cc1 do in these assays?
Six1-Eya2 blk: -7; TRPML1 inh: 9; CtBP-E1A inh: -15; TRPML1 agonist: 1.7; D2 ag: -2.1; PINK1 expr mod: 1.7%

What do the screens show for `CN(C)P(=O)(CCl)Nc1ccccc1` (stereo not drawn)?
Six1-Eya2 blk: 2; TRPML1 inh: 36; CtBP-E1A inh: -1; TRPML1 agonist: 2.8; D2 ag: -2.5; PINK1 expr mod: -1.1%

Results for O=C1C2CCCN2C(c2cccnc2)N1c1ccc(Cl)cc1 (stereo not drawn) ?
Six1-Eya2 blk: -1; TRPML1 inh: 7; CtBP-E1A inh: 3; TRPML1 agonist: -0.1; D2 ag: -1.7; PINK1 expr mod: 1.6%

Source: PubChem BioAssay
